# High-throughput results: PubChem BioAssay, several laboratories
# UCH37 inh: inhibitors of human deubiquitinating enzyme UCH37. purified proteasome/UCH37, Ub-AMC cleavage fluorescence. inhibition, % (test concentration not listed). 0.33% of 330,000 active. AID 588478;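 active = mean of two replicates above 20%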;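 also: 0% = compound-free wells with enzyme and 100% = wells lacking proteasome; stock transfer was 100 nL into about 20 µL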
# Target sequence (Q9Y5K5 whole entry, looked up): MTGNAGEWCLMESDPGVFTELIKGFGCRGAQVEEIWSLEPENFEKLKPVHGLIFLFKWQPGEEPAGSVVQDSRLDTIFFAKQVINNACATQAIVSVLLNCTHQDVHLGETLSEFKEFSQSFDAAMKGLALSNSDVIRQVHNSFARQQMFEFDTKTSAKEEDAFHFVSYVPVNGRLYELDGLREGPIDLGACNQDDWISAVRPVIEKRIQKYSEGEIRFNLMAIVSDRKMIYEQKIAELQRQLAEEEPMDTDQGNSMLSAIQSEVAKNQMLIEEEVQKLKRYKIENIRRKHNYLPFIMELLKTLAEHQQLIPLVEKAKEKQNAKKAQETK
#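 assay system = human UCH37 enzyme supplied as purified proteasome complex | amount = proteasome at 0.15 nM in the dispensed enzyme solution | schedule = 30 min compound-proteasome preincubation then 25 min substrate reaction, room temperature | measured by = fluorescence, ex 355 nm, em 460 nm | benchmarks = no-proteasome wells (full inhibition) and compound-free wells (no inhibition)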
# Calb FLC: C. albicans growth modulation with fluconazole | C. albicans CaCi-2 (fluconazole-resistant clinical isolate) + fluconazole, Alamar Blue growth, 48 h | growth inhibition, % (no concentration beside the values) | 0.57% of 300,000 active;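 active = most replicates above 75%; inconclusive = exactly half above 75%; inactive = most below 75%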;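 also: all wells also contain fluconazole at 8 µg/ml as a sub-toxic cotreatment; 0% = median of DMSO wells and 100% = median of geldanamycin control wells; wells of about 8 µL received 7.5 nL stock; the first replicate is given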
# LANA-H2B inh: blocks KSHV LANA binding to histone H2A/H2B. Q9QR71. cell-free LANA-H2A/H2B peptide, fluorescence polarization. inhibition, % (no concentration beside the values). 0.6% of 320,000 active; in the data active = inhibition mostly above about 10%, no sharp cut-off; inactive = mostly below about 6.7%;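 also: stock transfer was 7.5 nL into about 10 µL; 0% = median of vehicle wells and 100% = median of positive control wells; one replicate is shown; the record names a cut of 25% in any replicate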
# T cruzi inh: blocks replication of Trypanosoma cruzi; T. cruzi beta-gal in NIH3T3, luminescence, 90 h; inhibition, % (concentration not given with the values); 1.4% of 300,000 active;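 active = mean inhibition across valid replicates above about 55%, limit read from the data; inconclusive = mean below that limit but half or more replicates reach it; inactive = mean below it, under half of replicates reach it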;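 also: signal also drops with host cell toxicity which is not excluded here; 0% = plate median of DMSO wells and 100% = zero luminescence signal; higher percent means less beta-gal luminescence so fewer parasites; stock transfer was 50 nL into about 50 µL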
# Bfl-1 A1 inh: inhibitors of the anti-apoptotic protein A1, read as caspase activation. MEF A1-2A-BIM cells, Caspase-Glo 3/7 luminescence, 3 h; percent of clofoctol response, vehicle zero. caspase activation, % (concentration not given with the values). 0.066% of 330,000 active;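 active = over half of replicate activation scores above 10%, or exactly half above 10 with the replicate mean above 10; inconclusive = replicate mean below 10 yet half the replicates above 10; inactive = over half of replicates below 10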;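 also: wells of about 30 µL received 50 nL stock; many hits fall short of the cut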
# RanGTP-Impb inh: inhibitors of RanGTP-importin-beta interaction, primary screen, biochemical, FRET, CFP-Ran, YFP-importin-beta, homogeneous; cell-free CFP-Ran/YFP-importin-beta FRET ratio; 1.1% of 300,000 active; AID 2216; inhibition, % (test concentration not listed);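 active = most replicates above 15%; inconclusive = exactly half above 15%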;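 also: 0% = DMSO wells and 100% = Ran loaded with GDP instead of GTP; wells of about 40 µL received 100 nL stock; the first replicate is given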
# Beta apoptosis: beta cell apoptosis inhibition | 0.8% of 300,000 active | INS-1E cytokine-induced death, ATP luminescence, 48 h; percent of positive-control rescue, neutral wells zero | protection from apoptosis, % (concentration not given with the values);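 active = all replicates at 75% or more, or half of them and the mean; inconclusive = half reach 75% but not the mean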;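 also: 0% = cytokine-treated negative control wells and 100% = positive control rescue; higher means more ATP so stronger rescue from cytokine killing; wells of about 40 µL received 100 nL stock; the first replicate is given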
# B2AR ag: agonists of human beta-2 adrenergic receptor inducing internalization; P07550; Am2.2-beta2AR cells, FAP receptor internalization, flow cytometry; reference of the scale not given here; 0.43% of 340,000 active; response, % (concentration not given with the values);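 active = response above a set limit, near 3 SD of response in nonfluorescent compounds, cut at about 42% in these data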;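 also: stock transfer was 100 nL into about 11 µL; a reference agonist was the positive control; negative values mostly stem from fluorescent compounds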
# Target sequence (P07550 whole entry, looked up): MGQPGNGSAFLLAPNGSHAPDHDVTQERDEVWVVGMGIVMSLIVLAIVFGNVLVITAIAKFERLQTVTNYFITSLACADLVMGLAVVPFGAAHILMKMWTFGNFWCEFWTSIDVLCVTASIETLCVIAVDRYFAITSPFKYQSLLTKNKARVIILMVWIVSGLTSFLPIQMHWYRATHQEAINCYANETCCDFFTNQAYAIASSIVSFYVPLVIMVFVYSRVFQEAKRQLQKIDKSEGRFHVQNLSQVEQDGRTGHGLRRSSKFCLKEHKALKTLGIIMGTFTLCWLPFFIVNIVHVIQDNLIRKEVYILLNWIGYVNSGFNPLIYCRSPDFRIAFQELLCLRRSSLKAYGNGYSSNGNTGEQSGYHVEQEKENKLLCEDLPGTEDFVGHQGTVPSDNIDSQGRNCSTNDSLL
# * = called active by the depositor; ? = inconclusive; . = not tested or not shown.
SMILES,UCH37 inh,Calb FLC,LANA-H2B inh,T cruzi inh,Bfl-1 A1 inh,RanGTP-Impb inh,Beta apoptosis,B2AR ag
COc1ccc(CNS(=O)(=O)c2ccc(F)c(C(=O)Nc3ccc(OC)cc3)c2)cc1,-1.3,-11,-7.1,0,0.7,3.5,-3,3
Cc1ccc(C(=O)NC(=S)Nc2ccccc2C(F)(F)F)c(C)c1,-0.3,-1,8.9,-3,-2.2,0.5,-14,9
CCOC(=O)C1CCN(S(=O)(=O)c2cccc(C(=O)Nc3ccccc3)c2)CC1,-0.5,6,0.2,-5,0.0,-0.6,-2,9
OCCNc1ncnc2c1ncn2Cc1ccccc1,4.4,-16,1.2,-4,-0.2,0.5,-4,1
CC(C)CCN1CCN(Cc2cccn2-c2cccnc2)CC1CCO (stereo not given),0.5,1,2.8,0,0.5,-2.7,4,-9
O=C(NN1C(=O)/C(=C/c2ccc(O)cc2)SC1=S)c1ccccc1O,3.3,34,-23,-13,0.5,-9.2,5,-56
O=C(NCCc1c[nH]c2ccccc12)N[C@@H](Cc1ccccc1)C(=O)O,0.9,6,1.0,-4,0.3,9.3,-8,-1
CC(C)c1[nH]c(=O)c(C#N)c2c1COC(C)(C)C2,-16,6,-0.4,-5,-0.3,3.6,-2,6
Brc1ccc(C=Nc2ccc(Nc3ccccc3)cc2)s1,7.9,5,0.5,33,-0.7,2.0,-4,9
O=C(NNC1=NCCC1)c1cccc(Br)c1,-1.1,14,1.7,2,0.5,2.4,-15,-7
CSc1nc2c(c(=O)[nH]1)C(c1ccccc1)C1=C(CC(C)(C)CC1=O)N2 (stereo not given),.,4,-1.0,-3,0.6,3.0,5,3
COC(=O)Cc1cc(OC)c(OC)cc1Cc1cc(OC)c(OC)cc1CC(=O)OC,0.6,1,0.5,11,-0.7,-1.3,-4,13

# Copied from the results shown, two compounds:
SMILES,UCH37 inh,Calb FLC,LANA-H2B inh,T cruzi inh,Bfl-1 A1 inh,RanGTP-Impb inh,Beta apoptosis,B2AR ag
CSc1nc2c(c(=O)[nH]1)C(c1ccccc1)C1=C(CC(C)(C)CC1=O)N2 (stereo not given),.,4,-1.0,-3,0.6,3.0,5,3
COC(=O)Cc1cc(OC)c(OC)cc1Cc1cc(OC)c(OC)cc1CC(=O)OC,0.6,1,0.5,11,-0.7,-1.3,-4,13

# The listing picks up, repeating the four entries before the break.
SMILES,UCH37 inh,Calb FLC,LANA-H2B inh,T cruzi inh,Bfl-1 A1 inh,RanGTP-Impb inh,Beta apoptosis,B2AR ag
Brc1ccc(C=Nc2ccc(Nc3ccccc3)cc2)s1,7.9,5,0.5,33,-0.7,2.0,-4,9
O=C(NNC1=NCCC1)c1cccc(Br)c1,-1.1,14,1.7,2,0.5,2.4,-15,-7
CSc1nc2c(c(=O)[nH]1)C(c1ccccc1)C1=C(CC(C)(C)CC1=O)N2 (stereo not given),.,4,-1.0,-3,0.6,3.0,5,3
COC(=O)Cc1cc(OC)c(OC)cc1Cc1cc(OC)c(OC)cc1CC(=O)OC,0.6,1,0.5,11,-0.7,-1.3,-4,13
Cc1ccccc1-n1ncc(C(C)NS(=O)(=O)c2sccc2C)c1C (stereo not given),3.5,-1,-4.5,6,0.1,6.7,-5,-2
COc1ccc(/C=N/NC(=O)c2ccc(NC(=O)c3cccc([N+](=O)[O-])c3)cc2)c(C(=O)O)c1OC,.,-14,4.3,10,-0.5,6.1,0,-2
CCCCN1C(=O)CC(Nc2ccc(CC)cc2)C1=O (stereo not given),4.0,28,-0.7,13,0.6,0.1,0,-1
COc1ccc2c(CC(=O)Nc3ccc(OC)c(S(=O)(=O)N4CCOCC4)c3)coc2c1,0.0,18,2.3,-23,2.3,-3.3,6,-3
COc1ccc(CCNC(=O)CC(NS(=O)(=O)c2ccc(NC(C)=O)cc2)C(C)C)cc1OC (stereo not given),0.3,-3,-4.4,.,0.1,-0.4,0,-10
COCCCN(C(=O)c1cc(-c2ccco2)nc2ccccc12)c1c(N)n(Cc2ccccc2)c(=O)[nH]c1=O,-35,29,0.7,6,-0.1,2.6,-5,11
Cc1cc(C)c(NC(=O)CCCN2CCN(C)CC2)c(C)c1,2.1,1,2.5,2,-0.1,-2.2,2,1
COc1cccc(NC(=O)Nc2cc(C(=O)NC(C)C)ccc2N2CC3CC(C2)c2cccc(=O)n2C3)c1 (stereo not given),5.1,27,-0.4,5,-2.0,1.7,4,-7
CCCCNC(=O)c1onc(CSc2ccc(Cl)cc2)c1C(=O)NCCCC,36*,9,0.6,12,-2.1,-2.0,8,-19
COc1cc(S(=O)(=O)Nc2cccc3cn[nH]c23)c(OC)cc1C,5.5,7,3.1,-1,0.3,6.0,-5,13
COc1ccc(CN(C(=O)CCC(=O)N2CCCCC2)c2nccs2)cc1OC,4.4,-9,0.2,-7,2.7,1.2,3,-5
COc1ccc(NS(=O)(=O)c2ccc(O)c(NC(=O)c3ccc(S(=O)(=O)N4CCCC4)cc3)c2)cc1,0.5,13,-0.9,-11,0.6,0.0,-4,0
Cc1nc(-c2ccccc2)sc1C(=O)/C=C/c1ccc(Cl)cc1,3.4,-2,0.2,-9,-0.2,2.2,2,1
CCOC(CNC(=O)c1cc2c(=O)n(CC)c3ccccc3c2s1)OCC,-145,-3,-1.9,13,0.5,-4.5,2,0
Cc1cccc(CCNCc2c(C(=O)O)c(C)n(-c3ccccc3)c2C)c1,0.9,5,1.2,2,1.0,3.8,-3,16
O=C(O)CC(C(=O)NCc1ccccc1)C1CCCO1 (stereo not given),.,1,-2.4,8,0.6,0.9,-1,-6
C/C=C(\NC(C)=O)c1ccccc1,0.3,.,0.2,.,0.3,.,-11,-7
COc1ccc(NC(=O)c2c(C)noc2-c2snnc2C)cc1,2.6,-5,2.1,16,0.1,4.3,-2,-4
O=C(Nc1ccccc1NS(=O)(=O)c1ccc(F)cc1)C1CCC1,0.6,-2,-0.9,-13,1.3,-2.7,-3,-6
CC(C)CCNC(=O)C1CC(=O)N(CCc2ccccc2)C1 (stereo not given),5.7,4,6.8,-7,0.5,-2.2,6,6
Cc1nc(N)sc1C(=O)N/N=C/c1c[nH]c2ccccc12,.,-11,7.7,35,-0.6,-0.6,-1,1
CN1CCC(N(C)S(=O)(=O)c2ccc(NC(=O)COc3ccc(Br)cc3Cl)cc2)CC1,5.7,8,0.0,?,0.4,3.4,3,6
COC(=O)c1cc(NC(=O)CCc2c(C)nc3ncnn3c2C)cc(C(=O)OC)c1,-1.4,2,3.4,3,0.7,3.3,-6,6
Cc1ccc(CNC(=O)C2CCCN(c3nc4ccsc4c(=O)s3)C2)cc1 (stereo not given),-50,0,-0.4,2,-0.5,2.0,6,1
Cc1cc(NC(=O)CCC(=O)N(c2ccc(F)cc2)C(C(=O)NC2CCCC2)c2ccccc2)no1 (stereo not given),2.5,7,-7.3,7,0.2,-1.5,-2,-5
CCOC(=O)c1ccccc1NC(=O)c1cc(S(=O)(=O)N2CCOCC2)ccc1F,5.9,1,0.9,24,0.2,-1.9,7,-6
O=C(CSc1cccc[n+]1[O-])Nc1cc(Cl)ccc1[N+](=O)[O-],5.1,.,0.9,.,1.3,.,4,-4
CCOC(=O)CCCCC(=O)c1[nH]c(=O)[nH]c1CSc1nnc2c3cc(Br)ccc3n(C)c2n1,2.3,-18,1.2,4,-0.7,3.8,-2,.
COC(=O)c1ccccc1NC(=O)NN1CCN(C)CC1,7.9,1,-5.1,-7,0.1,-1.1,-1,10
O=C(NCc1ccc2c(c1)OCO2)c1cc(-c2ccncc2)nc2ccccc12,3.7,?,-3.2,24,-0.2,-2.7,6,7
CC(=O)C1=C(O)C(=O)N(c2ccc(O)cc2)C1c1ccccc1[N+](=O)[O-] (stereo not given),4.9,0,1.2,-13,-0.6,-0.3,-11,-7
COCCNC(=S)NC(=O)c1ccc(C(C)(C)C)cc1,5.7,2,-2.1,3,-1.1,-0.4,-2,4
ClC(Cl)(c1nnnn1-c1ccccc1)c1nnnn1-c1ccccc1,-0.1,.,2.5,.,-1.4,.,4,7
C/C=C(/C)C(=O)Nc1cccc(C2=NOC3(C2)C[C@H](C(N)=O)N(C(=O)COc2ccc(Cl)cc2)C3)c1 (stereo not given in full),1.2,-8,6.5,-10,0.0,1.5,0,-12
O=C(COC(=O)c1cc(-c2ccccc2)nc2ccccc12)NCC1CCCO1 (stereo not given),-3.6,-11,0.1,-10,-0.9,-2.2,-2,-1
O=C(Nc1nc2ccccc2s1)c1ccc([N+](=O)[O-])o1,3.0,44,-2.3,53,-2.0,0.5,-28,8
CC(=O)c1c(C)n(-c2ccccc2)c2ccc(OCC(O)CN3CCOCC3)cc12 (stereo not given),1.3,-3,-0.4,20,0.1,-3.6,-6,3
CCOC(=O)C1=C(CS(=O)(=O)c2ccc(C)cc2)NC(=O)NC1c1ccc(O)c(OC)c1 (stereo not given),1.5,7,5.0,-2,0.1,-0.9,-6,1
O=S(=O)(c1ccc(Br)s1)N1CCC2(CC1)OCCO2,3.8,5,0.5,-7,0.1,-3.1,0,2
COc1ccc(C)cc1NC(=O)CCCN1C(=O)C(c2ccccc2)Oc2cccnc21 (stereo not given),1.4,5,8.5,7,-0.1,3.2,-9,9
COc1ccc(S(=O)(=O)N2CCOCC2)cc1NC(=O)c1ccccc1C,1.6,1,3.2,-2,-1.2,2.8,-1,-1
N#C/C(=C\c1c(F)cccc1Cl)S(=O)(=O)c1ccccn1,2.2,4,-7.0,-19,1.6,-0.8,-1,-1
Cc1cc(C)nc(NN=C(c2ccccc2)c2ccccc2)n1,2.7,-23,2.8,12,0.9,0.9,12,-9
CCOC(=O)C1CCN(C(=O)COc2ccc(S(=O)(=O)N3CCOCC3)cc2C)CC1,0.2,-9,0.8,-13,0.6,2.0,1,0
CC(NC(=O)CCc1nnc(-c2ccc(-c3ccccc3)cc2)o1)c1nccs1 (stereo not given),0.8,-3,-15,4,-0.4,-1.4,12,-8
CCOc1ccccc1C(=O)NCC(=O)NCCc1ccc(S(N)(=O)=O)cc1,1.9,-1,2.8,-7,-0.6,?,-3,-4
CN1CCN(C2=NCCO2)CC1,2.2,-19,6.4,-3,0.6,-2.3,0,1
CCN(CC)CCNC(=S)Nc1ccc2nc(N3CCOCC3)cc(C)c2c1,-38,1,-1.5,-12,0.0,0.8,3,1
Cc1cc2cc(CN3C(=O)c4ccccc4C3=O)ccc2[nH]1,-0.5,-19,3.0,12,0.5,3.4,-3,-1
O=C(Nc1ccccc1Cl)C1CCCN(S(=O)(=O)c2ccc(F)cc2)C1 (stereo not given),0.8,13,8.8*,-7,0.2,3.8,-9,0
Cc1cccc(OCC(=O)Nc2ccc3c(c2)nc(CN2CCCCC2)n3C)c1,-5.1,17,-1.0,-9,-0.7,-1.1,-6,7
CCN(CC)C(=O)Cn1cnc2sc(C)c(S(=O)(=O)N3CCC(C)CC3)c2c1=O,1.2,-10,-0.4,0,-0.4,5.5,-1,-1
